Bioassay records deposited in PubChem BioAssay by several laboratories.
rRNA inh HTS: inhibits bacterial ribosomal RNA function over humanized ribosomes. E. coli WT GFP vs humanized-ribosome RFP mutants, fluorescence, 24 h; stronger effect = lower value; DMSO median 0, no signal -100. GFP signal change (wild-type ribosome), % (no concentration beside the values). hit rate 1.6% among 350,000. AID 720706;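 active means significant combined selectivity score with lowered wild-type GFP, culture density cut under 30%, mutant RFP and density less affected; inactive means any of these conditions unmet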; further: one replicate is shown; some compounds called inactive have numbers as strong as hits
HNF4A DNA FP: change in binding of human HNF4 alpha to DNA | P41235 | hit rate 0.3% among 360,000 | HNF4a-FITC DNA binding, fluorescence polarization, 1 h | activity change, % at 10 µM; in the data active means activity change above about 30%, passing the limit was not always enough;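 further: controls were the assay level and a saturating level of protein; the project sought stronger binding though the title names inhibitors; some compounds called inactive have numbers as strong as hits; positive values seem to mean higher polarization but the record does not say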
Target sequence (P41235 whole entry, looked up): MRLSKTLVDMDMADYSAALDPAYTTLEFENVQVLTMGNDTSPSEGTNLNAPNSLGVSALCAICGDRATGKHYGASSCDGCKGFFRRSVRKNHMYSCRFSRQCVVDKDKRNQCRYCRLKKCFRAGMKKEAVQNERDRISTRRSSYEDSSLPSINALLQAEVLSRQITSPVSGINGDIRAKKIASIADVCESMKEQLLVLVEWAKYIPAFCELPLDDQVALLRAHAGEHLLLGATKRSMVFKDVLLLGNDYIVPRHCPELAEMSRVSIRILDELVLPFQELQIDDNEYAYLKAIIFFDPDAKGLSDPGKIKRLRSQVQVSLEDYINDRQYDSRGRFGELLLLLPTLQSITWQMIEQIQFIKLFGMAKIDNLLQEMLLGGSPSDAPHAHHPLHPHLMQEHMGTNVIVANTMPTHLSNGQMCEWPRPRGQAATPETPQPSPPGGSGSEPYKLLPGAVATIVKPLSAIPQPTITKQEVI
FGF22 binding: FGF22 (human) thermal shift binding; Q9HCT0; recombinant FGF22 thermal shift, SYPRO orange fluorescence; percent of sucrose octasulfate shift, DMSO zero; calls only at 9.99 µM; hit rate 1.5% among 340,000; AID 651658;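 active means melting point raised past a set limit in the mean and every replicate; inconclusive means no clear call; three in four hits are not shown here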
Target sequence (Q9HCT0 whole entry, looked up): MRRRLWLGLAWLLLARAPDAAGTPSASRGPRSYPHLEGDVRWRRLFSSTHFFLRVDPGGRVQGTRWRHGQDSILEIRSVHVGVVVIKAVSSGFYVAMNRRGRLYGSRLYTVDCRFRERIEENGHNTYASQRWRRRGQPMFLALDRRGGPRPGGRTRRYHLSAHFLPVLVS
Ecoli growth: inhibitors of Escherichia coli growth | AID 1053175 | hit rate 0.21% among 330,000 | OD600, 23 h; stronger effect = lower value | OD600 absorbance (test concentration not listed);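 active means OD600 absorbance below the run mean of sample wells minus 3.6 SD, in any replicate, cut at about 0.56 in these data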;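 further: stock transfer was 300 nL into about 60 µL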
ALR H2O2 inh: inhibitors of human sulfhydryl oxidase ALR | purified ALR, DTT oxidation, H2O2 HRP-luminol luminescence | hit rate 3.8% among 290,000 | inhibition, % (concentration not given with the values) | P55789;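 active means mean and each replicate at 75% or more; inconclusive means only one of the two met; inactive means neither met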;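 further: stock transfer was 7.5 nL into about 7.5 µL; 0% = neutral wells and 100% = wells with inactivated enzyme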
UCH37 inh: blocks the human deubiquitinase UCH37; Q9Y5K5; purified proteasome/UCH37, Ub-AMC cleavage fluorescence; inhibition, % (concentration not given with the values); hit rate 0.33% among 330,000;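 active means mean of two replicates above 20%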;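 further: 0% = compound-free wells with enzyme and 100% = wells lacking proteasome; stock transfer was 100 nL into about 20 µL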
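System: Proteasome-associated human UCH37 deubiquitinase; Input: 0.15 nM proteasome in added enzyme buffer; Also added: Ub-AMC substrate from 1 µM stock; Incubation: 30 min compound-proteasome preincubation then 25 min substrate reaction, room temperature; Detection: fluorescence, ex 355 nm, em 460 nm; Read-out: % inhibition of Ub-AMC cleavage fluorescence; Benchmarks: no-proteasome and no-compound wells.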
B2AR ag: agonists of human beta-2 adrenergic receptor inducing internalization; P07550; Am2.2-beta2AR cells, FAP receptor internalization, flow cytometry; reference of the scale not given here; response, % (concentration not given with the values); hit rate 0.43% among 340,000; AID 504454;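 active means response above a set limit, near 3 SD of response in nonfluorescent compounds, cut at about 42% in these data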;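 further: stock transfer was 100 nL into about 11 µL; a reference agonist was the positive control; negative values mostly stem from fluorescent compounds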
Target sequence (P07550 whole entry, looked up): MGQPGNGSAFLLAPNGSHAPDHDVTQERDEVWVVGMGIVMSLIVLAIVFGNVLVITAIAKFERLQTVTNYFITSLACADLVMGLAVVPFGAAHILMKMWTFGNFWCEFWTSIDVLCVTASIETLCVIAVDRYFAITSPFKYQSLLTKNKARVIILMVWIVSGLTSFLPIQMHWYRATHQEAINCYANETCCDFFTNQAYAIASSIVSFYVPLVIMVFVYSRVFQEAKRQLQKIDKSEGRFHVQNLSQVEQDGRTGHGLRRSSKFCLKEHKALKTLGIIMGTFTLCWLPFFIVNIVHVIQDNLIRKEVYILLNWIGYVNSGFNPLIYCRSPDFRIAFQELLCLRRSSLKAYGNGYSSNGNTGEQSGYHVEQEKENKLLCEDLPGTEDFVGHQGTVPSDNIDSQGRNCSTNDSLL
rRNA inh HTS OD600: recorded beside rRNA inh HTS, whose call it bears; OD600 change, %; measured here: OD600 growth;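 optical density of the mix in the first replicate; 0 = DMSO median and -100 = no signal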
rRNA inh HTS RFP: second read-out of rRNA inh HTS, no call of its own (marks repeat the call); RFP signal change, %; measured here: RFP humanized mutant strains;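 first replicate; 0 = DMSO median and -100 = no signal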
Active calls of the source: *; i = inactive; ? = inconclusive; . = not tested or not shown; & = joins results of further samples.

SMILES	rRNA inh HTS	rRNA inh HTS OD600	rRNA inh HTS RFP	HNF4A DNA FP	FGF22 binding	Ecoli growth	ALR H2O2 inh	UCH37 inh	B2AR ag
COC(=O)c1cn(-c2ccccc2)nc1-c1ccc(OC)cc1	0	6	-2.8	0.0	i	0.71	9	2.8	-5
COCCCN1C(=O)C(CC(=O)NC(c2ccccc2)c2ccccc2)CC(C(=O)N(C(C)C)C(C)C)=C1C (configuration not stated)	-6	-32	-6.0	3.4	i	.	.	.	.
COc1ccc(CN2CCNC(=O)C2CC(=O)NC2CCCCC2)c(OC)c1 (configuration not stated)	2	10	0.1	2.7	i	0.73	-2	1.0	-1
Cc1cc(C)cc(NC(=O)C(OC(=O)c2ccc(NC(=O)CC#N)cc2)c2ccccc2)c1 (configuration not stated)	3	1	5.8	12	i	0.64	-15	-5.3	7
CC(=O)c1sc2nc(SCC(=O)N3CCCCC3)[nH]c(=O)c2c1C	.	.	.	4.1	.	0.79	0	-28	-11
NS(=O)(=O)c1cccc(NC(=O)COC(=O)Cn2cnc3ccccc32)c1	10	6	-0.8	-2.6	i	0.68	-3	4.6	4
CCOc1ccccc1NC(=O)c1cc(-c2ccncc2)nc2c(Cl)cccc12	17	16	1.0	3.5	i	0.74	.	-5.8	-2
COc1ccc(NC(=O)c2ccco2)cc1N	.	.	.	0.6	.	0.69	.	4.3	0
O=C(O)Cc1sc(Nc2cccc3ccccc23)nc1-c1ccccc1	-2	-9	5.3	2.9	i	0.72	-2	-2.3	9
CCCN(CC(=O)Nc1ccccc1OC)C(=O)c1ccc(=O)[nH]c1	7	9	0.7	4.6	i	0.72	.	2.8	10
COc1ccc(NC(=O)C[C@H]2C(=O)N(c3ccc(OC)cc3)C[C@@H]2CSC)cc1	-9	-10	-8.0	-1.3	i	.	.	.	.
Cn1cccc1/C=C1\Cc2ccccc2C1=O	10	3	-3.9	16	i	0.64	-17	1.9	-3
Cc1oc(-c2ccccc2F)nc1CS(=O)(=O)CC(=O)NCc1ccco1	-5	-1	7.5	0.6	i	0.73	-7	0.8	6
CCOc1ccccc1N(CC(=O)NCCc1ccc(OC)cc1)S(=O)(=O)c1ccc(C)cc1	-1	-1	0.9	-1.4	i	.	.	.	.
COC(=O)CCC(=O)N(CCN(C(=O)CCC(=O)OC)c1ccccc1)c1ccccc1	2	4	1.5	-3.0	i	0.68	-1	2.5	6
COc1ccc(N(C(=O)c2snc(C(N)=O)c2N)C(C(=O)NCC2CCCO2)c2ccc3ncccc3c2)cc1OC (configuration not stated)	3	-6	0.0	3.4	i	0.66	-21	0.0	-12
O=C(CSc1nnc2ccccn12)NNC(=O)c1cccc([N+](=O)[O-])c1	2	9	-1.1	5.2	i	0.65	0	2.5	1
O=C(NCc1cc(C(F)(F)F)ccc1F)C1CCC(=O)N(C2CC2)C1 (configuration not stated)	9	19	5.6	2.4	i	0.7	-2	-1.3	-2
CC(/C=N/NC(=O)c1nnn(-c2nonc2N)c1CN(C)C)=C\c1ccco1	10	2	4.2	6.9	i	.	-12	.	-6
Cc1c(O)cccc1C(=O)N[C@@H](CSc1ccccc1)[C@H](O)CN1C[C@H]2CCCC[C@H]2C[C@H]1C(=O)NC(C)(C)C	1&-2	12&4	23&22	1.2&1.2	i	.	-1&-2	2.3&-3.4	-11&5

Quoted from the listing.
Entry of COC(=O)c1cn(-c2ccccc2)nc1-c1ccc(OC)cc1 under rRNA inh HTS OD600: 6
Entry of Cc1oc(-c2ccccc2F)nc1CS(=O)(=O)CC(=O)NCc1ccco1 under rRNA inh HTS: -5
Entry of Cc1c(O)cccc1C(=O)N[C@@H](CSc1ccccc1)[C@H](O)CN1C[C@H]2CCCC[C@H]2C[C@H]1C(=O)NC(C)(C)C under UCH37 inh: 2.3&-3.4

More entries:
SMILES	rRNA inh HTS	rRNA inh HTS OD600	rRNA inh HTS RFP	HNF4A DNA FP	FGF22 binding	Ecoli growth	ALR H2O2 inh	UCH37 inh	B2AR ag
COc1ccc(/C=C2\SC(=S)N(CC(=O)N(C)C3CCS(=O)(=O)C3)C2=O)cc1 (configuration not stated)	-2	6	0.6	1.9	i	0.61	-45	5.6	-3
O=C(NNC(=O)c1cc(-c2ccc(Cl)cc2)nc2ccccc12)c1csc(N2CCOCC2)n1	5	10	4.6	-1.3	i	0.66	5	1.6	4
O=C(CCN=C1NS(=O)(=O)c2ccccc21)OCC(=O)c1ccc(F)cc1	-2	4	-2.6	0.9	i	0.68	-2	0.2	1
CC1CCN(C(=O)C2CCC(CNc3c(N4CCCCC4)c(=O)c3=O)CC2)CC1 (configuration not stated)	13	-3	-4.0	-3.0	i	0.67	-3	-0.7	-4
CCCCc1c(C)nc(N2CCCC2)[nH]c1=O	5	1	-0.8	1.6	i	0.67	1	1.8	0
O=C1CN(C(=O)COC(=O)CCNS(=O)(=O)c2ccc(Cl)cc2)c2ccccc2N1	-7	0	-2.3	0.4	i	0.68	3	1.1	-5
CCC(=O)c1ccc(OCC(O)CNCCc2ccc(Cl)cc2)cc1 (configuration not stated)	-12	-20	6.4	1.3	i	0.62	-2	6.3	2
Cc1ccnc(SCCn2c(N3CCN(Cc4ccccc4)CC3)nc3c2c(=O)[nH]c(=O)n3C)n1	2	13	-1.0	1.1	i	0.8	.	2.9	-7
CCCN(CC(=O)Nc1ccc(F)c(F)c1F)C(=O)Cc1ccc(S(=O)(=O)N2CCOCC2)s1	1	1	-0.5	12	i	0.66	-16	0.7	3
COc1ccccc1NC(=O)CN1CCC(c2nc3ccc(C)cc3[nH]2)CC1	-26*	-21*	-1.9*	1.7	i	0.64	-7	2.9	-1
O=C(NCc1cccnc1)c1cc(C2CCCN(C(=O)c3ccc4c(c3)CCO4)C2)on1 (configuration not stated)	4	1	-0.3	2.8	i	.	.	.	.
CCc1ccc(NC(=O)CS(=O)CC(=O)NCCCc2ccccc2)cc1 (configuration not stated)	8	12	-4.0	-4.1	i	0.67	-4	0.7	7
Cc1[nH]n(-c2cccc(Cl)c2)c(=O)c1/C=N/n1c(C)nc2ccccc2c1=O	.	.	.	1.4	.	.	8	.	4
Cc1ccc(NC(=O)CSCC(=O)Nc2nnc(C)s2)cc1	12	11	3.2	-1.5	i	0.68	71	0.9	1
COCCNC(=O)Cn1cc(C(=S)N2CCCCC2)c2ccccc21	8	5	2.9	-3.0	i	0.71	-14	3.2	-2
O=C(Nc1ccc2c(c1)OCO2)c1cc(-c2ccccc2Cl)on1	-2	5	-3.3	0.7	i	0.67	-5	2.0	1
O=C1C(=C2CCCCC2)SC(=S)N1Cc1ccco1	.	.	.	4.3	.	.	43	.	4
CSc1ccc(/C=N/NC(=O)c2ccc(-n3cnnn3)cc2)cc1	7	6	1.0	2.6	i	.	-1	.	-4
N#Cc1c(/N=C/c2cccnc2)sc2c1CCCC2	-7	-10	-0.3	-1.0	i	.	45	.	-17
Cn1c(=O)[nH]c(=O)c2c1nc1n2CC(COc2ccc3ccccc3c2)O1 (configuration not stated)	4	7	-0.8	0.9	i	0.66	-17	0.3	3
CC(CNS(=O)(=O)c1ccccc1)Sc1nncn1C (configuration not stated)	11	0	-0.6	-1.2	i	0.72	.	2.7	1
C#CCOCCOCCOCCNc1nc(N2CCN(C(=O)[C@H]([C@@H](C)CC)n3cc([C@@H](N)CC(C)C)nn3)CC2)nc(N2CCN(C(=O)[C@H](CCCCN)n3cc([C@@H](N)CC(C)C)nn3)CC2)n1	.	.	.	.	.	.	-10	-0.2	-2
CCc1ccc(N(C(C)=O)C2C=CS(=O)(=O)C2)cc1 (configuration not stated)	.	.	.	0.3	.	0.71	-2	1.5	-6
O=C(OC1CCCCC1=O)c1ccc(F)c(S(=O)(=O)N2CCOCC2)c1 (configuration not stated)	1	2	-1.5	-2.4	i	0.68	13	-0.3	-4
C/C=C1\COC(C(=O)NCc2ccccc2)(C(F)(F)F)C=C1C=C(C)C (configuration not stated)	9	4	2.9	-4.7	i	.	38	-1.4	0
COc1cccc(CNc2ccc(F)c(Cl)c2)c1O	.	.	.	2.0	.	0.68	?	4.2	2
C=CCC[C@H](Cc1ccc(F)cc1)C(=O)OC[C@@H](NC(=O)[C@@H](CC=C)CC(=O)N[C@H](CO)Cc1ccccc1)C(C)(C)C	1	3	-2.5	0.1	i	.	3	4.0	-8
NC(=O)CSc1nc(-c2ccccc2)nc2c1CCCC2	11	3	1.9	-0.9	i	0.75	.	2.1	-6
Cc1nc2cc(N)ccc2n1-c1ccccc1	5	-1	-2.2	1.4	.	0.65	99*	2.3	-2
O=C(Cn1cnc2ccccc2c1=O)NCC(=O)N1CCOCC1	8	-7	-1.5	-0.5	i	0.69	-13	-0.2	12
CC(C(=O)NC1CCCc2ccccc21)N1CCN(c2ccc(F)cc2)CC1 (configuration not stated)	.	.	.	1.9	.	0.71	.	0.3	2
Cn1c(-c2ccccc2)c(C#Cc2ccc(N)cc2)c2ccccc21	3	2	-1.9	2.3	i	0.71	-5	-148	3
NC(=O)c1c(NC(=O)c2ccccc2F)sc2c1CCCC2	14	18	3.8	6.4	i	0.67	0	-288	-4
CCn1c(SCC(=O)N2CCN(c3cccc(Cl)c3)CC2)nc2ccccc2c1=O	.	.	.	-2.4	.	0.68	-6	-0.1	4
COc1cccc(C(O)c2nc(-c3cccc(C(=O)O)c3)cs2)c1 (configuration not stated)	1	-8	-5.5	-0.5	i	.	.	.	.
COc1ccc(N=Cc2ccc(-c3ccccc3)o2)cc1	14	12	1.5	-3.5	i	0.67	.	4.3	4
CN1CCN(C(=O)N(c2ccccc2)c2ccccc2)CC1	15	1	-0.8	2.2	i	0.7	.	5.0	-2
CCC(C)(C)C1CCc2[nH]nc(C(=O)NC(C)C)c2C1 (configuration not stated)	5	10	-2.3	-1.0	i	0.69	1	-0.7	-20
CC1CN(C(=O)c2cccc(C(=O)N3CC(C)OC(C)C3)c2)CC(C)O1 (configuration not stated)	.	.	.	-5.8	.	0.78	-13	1.7	5
CCC(C)[C@@H](C(=O)Nc1ccc2c(c1)OCO2)N1Cc2ccccc2C1=O (some centres not stated)	6	-9	-0.2	-1.7	i	0.72	36	5.0	4

Record cards (already shown):
Shown for COc1cccc(C(O)c2nc(-c3cccc(C(=O)O)c3)cs2)c1 (configuration not stated) : rRNA inh HTS = 1; rRNA inh HTS OD600 = -8; rRNA inh HTS RFP = -5.5; HNF4A DNA FP = -0.5; FGF22 binding = i; Ecoli growth = .; ALR H2O2 inh = .; UCH37 inh = .; B2AR ag = .
Shown for CC(C(=O)NC1CCCc2ccccc21)N1CCN(c2ccc(F)cc2)CC1 (configuration not stated) : rRNA inh HTS = .; rRNA inh HTS OD600 = .; rRNA inh HTS RFP = .; HNF4A DNA FP = 1.9; FGF22 binding = .; Ecoli growth = 0.71; ALR H2O2 inh = .; UCH37 inh = 0.3; B2AR ag = 2

Other records.
SMILES	rRNA inh HTS	rRNA inh HTS OD600	rRNA inh HTS RFP	HNF4A DNA FP	FGF22 binding	Ecoli growth	ALR H2O2 inh	UCH37 inh	B2AR ag
COCCn1nnnc1C(c1ccc(OC)cc1)N1CCC(C)CC1 (configuration not stated)	.	.	.	-2.4	.	0.74	2	2.3	-14
Cc1ccc(C)c(OCCC(=O)OCC(=O)NCc2ccccc2)c1	6	0	0.1	-1.6	i	0.68	0	2.6	7
O=C(COC(=O)C1CCC1)Nc1cc(S(=O)(=O)N2CCCCC2)ccc1Cl	11	10	2.0	0.7	i	0.69	-1	0.9	-6
COc1ccc(OC)c(NC(=O)c2ccc(OCC(=O)N3CCOCC3)c(OC)c2)c1	3	4	-1.2	0.1	i	0.59	-88	2.8	-1
CCOc1cccc(C(=O)NC(=S)Nc2cccc(C)c2)c1	-3	2	-2.5	-2.0	i	0.64	-7	2.2	-1

The list is partial, so the mix of outcomes need not match the whole.
